MgrA-DNA mod – modulators of Staphylococcus aureus MgrA DNA binding; actives 0.13% (n = 84,000); fluorescence polarization; AID 602314; inhibition, %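 (about 10 µg/mL by stock and volumes)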;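 active = above 50% in either of two replicates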;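 also: 0% = protein plus DNA without compound and 100% = DNA alone without protein; higher means less MgrA bound to DNA so lower polarization; one replicate is shown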
S aureus helic – blocks Staphylococcus aureus DNA helicase. purified S. aureus helicase, fluorescence unwinding assay; about half of the hits fall short of the stated cut. inhibition, %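 (tested at about 80 µM)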. actives 0.05% (n = 120,000). AID 485395;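 active = both duplicates at 50% or more, or one of them with a favoured structure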;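 also: 0% = mean of negative control wells and 100% = mean of positive control wells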
Numbers without * were called inactive; x = not tested or not shown. Only part of the results is shown; the hit share may differ from the screen's.

SMILES	MgrA-DNA mod	S aureus helic
O=C1OCc2ccc(NS(=O)(=O)c3ccc(C(F)(F)F)cc3)cc21	-0.9	x
CC1CCCCN1C(=O)CN(c1nccs1)S(=O)(=O)c1ccccc1 (stereo unspecified)	x	-30
CN(Cc1ccco1)C(=O)c1cc2c(s1)-c1ccc(Cl)cc1S(=O)(=O)C2	x	-7
C=CCNC(=O)c1ccccc1NS(=O)(=O)c1ccc(Br)cc1	-1.4	-14
O=C(c1ccco1)N(CC1CCCO1)c1nc(-c2ccccc2)cs1 (stereo unspecified)	3.9	6
COc1ccc(N=C(SC)N2CCOCC2)cc1	0.6	x
Cn1cnc(S(=O)(=O)N2CCc3ccccc32)c1	x	16
CCOC(=O)CSc1ccc2ccccc2n1	x	20
CCN(CC)c1nc2ccccc2c(N)c1-c1ccccc1	1.4	7
COC(=O)c1sccc1NC(=O)c1cc(-c2ccc(OC)cc2OC)nc2ccccc12	-0.3	x
c1csc(CNC2C3CC4CC(C3)CC2C4)c1 (stereo unspecified)	-7.2	7
CC(C)CN1CCOC(CNCc2ccc(-c3nc4ccccc4s3)o2)C1 (stereo unspecified)	x	-2
COc1cc2c(cc1OC)C(c1c(-c3ccccc3)noc1C)=NCC2	-3.0	x
CC(=O)Oc1ccc(NNc2ccccc2)cc1	x	-15
COc1ccc(-n2cnc(=O)c(C#N)c2SC)cc1	x	19
C=CCn1c(NC(=O)CC)c(C(=O)OCC)sc1=S	x	4
CC(Sc1nncn1C)c1nnc(-c2cccs2)o1 (stereo unspecified)	x	-7
CC(C)NC(=O)c1ccccc1C(=O)NC(C)C	3.6	4
CCOC(=O)c1c(-c2ccccc2)oc2ccc(OCC(O)CN3CCOCC3)cc12 (stereo unspecified)	x	-3
CCn1c(=O)c2c(nc3n2CCS3)n(C)c1=O	x	10
Cc1ccc(C)c2[nH]c(=O)c(CCNC(=O)C(C)Oc3ccccc3)cc12 (stereo unspecified)	x	-14
CC(NC(=O)c1cccs1)C(=O)N1CCCCC1 (stereo unspecified)	x	7
Cc1cc(=O)oc2cc(OCC(=O)OCC(=O)c3ccc4c(c3)NC(=O)CO4)ccc12	x	-8
CCOC(=O)COc1ccc(C2NC(C(=O)O)CS2)cc1OC (stereo unspecified)	x	1
CC1(C)Cc2ccccc2C(C)(C(=O)NN)N1 (stereo unspecified)	0.7	5
CCOc1ccc(C(=O)Nc2ccc(S(=O)(=O)N3CCOCC3)cc2)cc1OCC	-2.2	14
CCCC1(CCC)NC(=O)N(Cc2cc(=O)oc3c(C)c(C)ccc23)C1=O	x	1
CN(C)/C=N/c1sc2c(c1C#N)CCC2	x	4
COC(=O)C1=C(C)OC(N)=C(C#N)C1c1ccc2c(c1)OCO2 (stereo unspecified)	-1.2	x
CCOC(=O)c1c(C)nn(-c2ncccc2NC(=S)NCc2ccco2)c1C	x	-14

Ordered by the number under MgrA-DNA mod (highest first): 3 from the list above
| mol | MgrA-DNA mod |
| --- | --- |
| CC(C)NC(=O)c1ccccc1C(=O)NC(C)C | 3.6 |
| COC(=O)c1sccc1NC(=O)c1cc(-c2ccc(OC)cc2OC)nc2ccccc12 | -0.3 |
| c1csc(CNC2C3CC4CC(C3)CC2C4)c1 (stereo unspecified) | -7.2 |

The list continues.
SMILES	MgrA-DNA mod	S aureus helic
O=C(NCc1ccc2c(c1)OCO2)c1cccc2ccccc12	-1.1	-1
Cc1sc2nc(CSCC(=O)c3cc(C)n(CCC(C)C)c3C)[nH]c(=O)c2c1C	x	-14
C/C=C(\C)C(=O)Nc1cc(C)ccc1-n1cccc1	-1.5	x
CCOC(=O)c1cc(C)n(Cc2ccc(OCC)c(OC)c2)c1C	x	4
OC(COc1ccc(Br)cc1)Cn1ccnc1 (stereo unspecified)	-0.1	10
CC(=O)N=C(N)/N=c1\nc(C)c2ccc(C)cc2n1C(C)=O	x	-4
Cc1ccc(S(=O)(=O)C(F)(F)F)cc1	-1.1	3
O=C(N/N=C/c1cccs1)c1ccccc1CO	-2.2	x
CCCNC(=O)Nc1ccc(S(=O)(=O)Nc2ccc(OCC)cc2)cc1	x	6
CCOC(=O)C1CCN(c2nc(OC)nc(OC)n2)CC1	4.0	x
O=C(O)c1ccccc1NCc1ccc2c(c1)OCO2	x	-19
N/C(=N\O)c1cncnc1N	2.3	x
COc1cccc(C2=NOC(C(=O)NC(C)C)C2)c1 (stereo unspecified)	x	-10
COc1ccc(/C(C)=N/NC(=O)c2ccc(CN3CCOCC3)cc2)cc1	x	-10
CC(=O)N(CN1C(=O)c2ccccc2C1=O)c1ccccc1	1.2	4
N#CCN(CC#N)C(=O)c1cccs1	3.0	x
O=C(CSc1ccccc1C(=O)Nc1ccccc1N1CCCC1)NCc1ccco1	x	13
O=c1oc(-c2ccccc2)cc(Cl)c1Cl	x	14
CCCCC/C=C\C/C=C\CCCCCCCC(N)=O	0.8	x
CCC(=O)Nc1nc2ccccc2n1CCN(C)C	x	6
C=CCn1c(CCCN2C(=O)c3cccc4cccc(c34)C2=O)nnc1SCC(=O)OCC	-2.9	x
COc1ccc(OC)c(-c2n(C)c3ccccc3[n+]2C)c1	0.8	-9
COc1cccc2cc(C(N)=O)/c(=N/c3sc4c(c3C(N)=O)CCCC4)oc12	-1.0	x
CC(C)N(C(=O)N1CCN(c2ccnc3cc(Cl)ccc23)CC1)C(C)C	0.2	x
O=C(Cn1ncc2c3ccccc3n(Cc3ccc(Cl)cc3)c2c1=O)NC1CC1	x	-47
COC(=O)c1ccc(C(=O)Nc2ccc(C(F)(F)F)cc2)nc1	2.1	x
Cc1cccc(C)c1OCCN1C(=O)c2ccccc2C1(O)c1ccccc1 (stereo unspecified)	-1.2	10
c1ccc(CNCCCSc2ncccn2)cc1	-2.2	11
CCOc1ccc(S(=O)(=O)NC2CC(C)(C)NC(C)(C)C2)c2ccccc12	x	-13
Cc1ccc(C(=O)OCC(N)=O)cc1C	x	6

Compounds shown so far that contain two or more sulfur atoms:
SMILES	MgrA-DNA mod	S aureus helic
CC1CCCCN1C(=O)CN(c1nccs1)S(=O)(=O)c1ccccc1 (stereo unspecified)	x	-30
CN(Cc1ccco1)C(=O)c1cc2c(s1)-c1ccc(Cl)cc1S(=O)(=O)C2	x	-7
C=CCn1c(NC(=O)CC)c(C(=O)OCC)sc1=S	x	4
CC(Sc1nncn1C)c1nnc(-c2cccs2)o1 (stereo unspecified)	x	-7
Cc1sc2nc(CSCC(=O)c3cc(C)n(CCC(C)C)c3C)[nH]c(=O)c2c1C	x	-14

Next part
SMILES	MgrA-DNA mod	S aureus helic
O=C(Cc1ccc(-n2c(=S)[nH]c3ccccc3c2=O)cc1)NCCc1ccccc1	-0.2	12
CCOC(=O)N1CCC(NC(=O)C(NC(=O)C2CCCCC2)C(C)C)CC1 (stereo unspecified)	x	4
O=C(Cn1nnc(-c2ccccc2)n1)Nc1ccccc1	-0.2	-2
Cc1c(C(=O)NCCN2CCOCC2)sc2nc3n(c(=O)c12)CCCC3	x	27
COc1ccc(NC(=O)C(c2ccccc2)N(C)C(=O)c2ccc(=O)[nH]c2)cc1 (stereo unspecified)	x	11
COC(=O)CNC(c1ccccc1)c1cc(Br)ccc1NC(=O)CN1CCOCC1 (stereo unspecified)	x	-3
CCCCC(c1nnnn1C(C)C)N1CCN(c2ccc(F)cc2)CC1 (stereo unspecified)	-0.2	14
Cc1cc(C(F)(F)F)nn1Cc1ccc(C(=O)O)cc1	-1.6	-37
O=C1CCC(=O)N1OCC1CCCN2CCCCC12 (stereo unspecified)	-2.4	8
COc1ccccc1NC(=O)N1CCCN(Cc2ccc(F)cc2)CC1	-0.8	x
CC1(C)OC2[C@H](n3cnc4c(N)ncnc43)O[C@H](CO)[C@H]2O1 (stereo partly specified)	2.5	x
COC(=O)NCC(c1cccnc1)N1CCN(c2ccccc2)CC1 (stereo unspecified)	x	2
N=C1/C(=C/c2cccn2-c2ccc(Br)cc2)C(=O)N=C2SC=CN12	2.8	6
COc1ccccc1C(=O)NC1CCN(C)CC1	1.1	6
O[C@@H]1CC2C3C[C@H](O)C4C3CC2C41 (stereo partly specified)	x	20
CCCCCC1C(O)CCC1CC(=O)OC (stereo unspecified)	x	17
Cc1cc(S(=O)(=O)N(C)Cc2ccccc2)ccc1-n1cnnn1	1.2	-4
CCOc1ccccc1NC(=O)CCN1C(=O)NC2(CCCC2)C1=O	x	-12
Cc1ccc(Nc2nc(COC(=O)c3ccc(-n4cnnn4)cc3)cs2)cc1	x	1
O=C(c1cccc(N2C(=O)C3C4C=CC(C4)C3C2=O)c1)N1CCN(c2ccccc2F)CC1 (stereo unspecified)	x	5
O=S(=O)(c1ccccc1)c1nc(-c2cccs2)oc1NCc1cccnc1	x	-8
Cn1c2c(c(=O)n(C)c1=O)CN(C1CC1)CN2	1.5	x
CC(C)Nc1nc2cc(Cl)ccc2s1	-0.8	x
COc1ccccc1CNC1CCCC1	1.7	8
CCOC(=O)c1nc(N)nc(Nc2ccccc2)n1	5.4	15
Cc1ncc(CO)c2cc(C(=O)Nc3ccccc3S(N)(=O)=O)c(=O)oc12	x	23
COc1ccc(CCNC(=O)CSc2nc(N)cc(N)n2)cc1	x	13
CCOC(=O)C(O)C(C)(C)CN1C(=O)c2ccccc2C1=O (stereo unspecified)	-3.0	8
O=C(NCCNc1ncnc2scc(-c3ccccc3)c12)c1cccs1	-3.8	x
CC(C)C1N=C2c3ccccc3N=C(SCc3ccccc3F)N2C1=O (stereo unspecified)	0.4	6

Record cards, from the list above:
Shown for COc1ccccc1NC(=O)N1CCCN(Cc2ccc(F)cc2)CC1 = MgrA-DNA mod = -0.8; S aureus helic = x
Shown for CCOc1ccccc1NC(=O)CCN1C(=O)NC2(CCCC2)C1=O = MgrA-DNA mod = x; S aureus helic = -12

(more compounds)
SMILES	MgrA-DNA mod	S aureus helic
O=[N+]([O-])c1ccc(Oc2cccnc2)nc1	-1.5	x
O=C(CN1C(=O)CCC1=O)Nc1ccc2c3c(cccc13)CC2	x	3
CSc1nsc(SC)c1C#N	0.6	1
Cc1ccc(CN2CCC(CNC(=O)Nc3cc(C)cc(C)c3)C2)cc1 (stereo unspecified)	x	7
COc1cc(/C=C2\C(=O)NC(=O)N(c3ccc(F)cc3)C2=O)ccc1OCC(=O)O	2.6	x
COc1cc(OC)c(C(=O)OCC(=O)N(C)C2CCCCC2)cc1OC	x	-19
CCOC(=O)c1cnc(SCC(=O)OC)nc1N	-0.1	20
C1=CC2c3ccccc3NC(c3ccncc3)C2C1 (stereo unspecified)	-2.5	4
O=C(OCC(=O)c1ccccc1Br)c1ccco1	-1.4	4
COC(=O)c1c2c(c[n+](C)c1C)COC(C)OC2 (stereo unspecified)	x	-21
CC1CCN(C(=O)CSc2c3c(nc4ccccc24)CCCC3)CC1	-3.2	9
Cn1c(=O)c2c(SC/C(O)=C(\C#N)c3nc4ccccc4[nH]3)nc(C(C)(C)C)nc2n(C)c1=O	x	0
COc1cc(C(=O)NCc2nc(-c3ccccc3C)no2)cc(OC)c1OC	x	6
O=C1C2C3C=CC(C3)C2C(=O)N1c1ccc(-c2cnc(-c3ccc(N4C(=O)C5C6C=CC(C6)C5C4=O)cc3)nc2)cc1 (stereo unspecified)	-1.8	x
Oc1ccccc1C(C#Cc1ccccc1)N1CCCCC1 (stereo unspecified)	0.3	-7
O=C(NCCN1C(=O)S/C(=C\c2ccc(F)cc2)C1=O)c1cc(F)c(F)c(F)c1F	1.6	19
Cc1ccc(-c2noc(CNC(=O)c3ccc4c(c3)OCO4)n2)cc1	x	18
CCOC(=O)Cc1csc(SC(C)C#N)n1 (stereo unspecified)	x	15
Cc1ccc2nc(-c3ccc(O)cc3O)cn2c1	x	-3
CCOC=Nc1c(C(=O)OCC)sc2nc(SC)ncc12	x	12
CC(=O)[C@@]1(O)CCC2C3C=C(Cl)C4=CC(=O)[C@@H]5CC5[C@]4(C)C3CC[C@@]21C (stereo partly specified)	0.2	x
S=C(NCCN1CCOCC1)Nc1ccccc1	x	-29
COc1ccc(NC(C)C(=O)N2CCOCC2)c(OC)c1 (stereo unspecified)	x	8
Cc1ccc(C(=O)C(NC(=O)c2ccco2)Nc2ccc(C)c(Cl)c2)cc1 (stereo unspecified)	-0.9	9
O=C(CC(C(=O)N1CCc2ccccc21)n1ccnc1)NC1CCCC1 (stereo unspecified)	x	3
CS(=O)(=O)Nc1cc(-c2nnc(Nc3ccccc3)c3ccccc23)ccc1N1CCOCC1	0.6	4
CCCCCCCc1ccc(NC(=O)Nc2ccc(F)cc2)cc1	-2.3	x
COc1ccc(NC(=O)c2cc3n(n2)C(C(F)(F)F)CC(c2ccc(OC)c(OC)c2)N3)cc1OC (stereo unspecified)	-2.0	x
NC(N)=Nc1nc2cc(Cl)ccc2o1	-1.6	4
S=C(NC1CCCCC1)N(Cc1ccccc1)CC1CC=CCC1 (stereo unspecified)	0.9	8

Next entries.
SMILES	MgrA-DNA mod	S aureus helic
COc1ccc(OC)c(NC(=O)CNC(=O)Cn2cnc3ccccc3c2=O)c1	x	-6
CC(C)(CNc1ccc(S(=O)(=O)N2CCCC2)cn1)N1CCCCC1	x	2
c1ccc(-c2nc(-n3ccnc3)nc(-n3ccnc3)n2)cc1	x	19
Cc1ccsc1CNn1cnnc1SCc1ccc(Cl)cc1	-1.5	8
CC1CCCN(S(=O)(=O)c2ccc3[nH]c(=O)cc(C(=O)NCCc4ccccc4)c3c2)C1 (stereo unspecified)	x	17
CN1CCN(NC(=O)CCN2C(=O)/C(=C\c3ccccc3)SC2=S)CC1	1.1	10
